# Assay outcomes (PubChem BioAssay)
# RE007 growth inh: less growth of the S. pombe RE007 Vpr strain; S. pombe RE007 Vpr strain, BacTiter-Glo ATP luminescence, 24 h; control for the full effect not named in the record; Potency, µM (highest dose often 92.2 µM), for the others: at the top dose activity change, negative = less growth; 0.21% of 360,000 active; active = well fitted falling curve with a large enough effect; inconclusive = small, poorly fitted or top-dose-only effect; inactive = no such curve, though single readings can be large or run the other way;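 also: % is scaled to controls: 0 for no effect and ±100 for the full control effect; nearly all actives have a fitted effect of over 50% in size; the assay follows cell death caused by Vpr and the record does not say whether a fall means rescue or toxicity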
#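 Fission yeast strain RE007, carrying one chromosomally integrated HIV-1 vpr copy, was seeded at OD 0.01 in PMG+AL medium with 23 nL pinned compound. After 24 h at 30 °C and 99% humidity, viability was read by BacTiter-Glo luminescence.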
# 2A StopGo: FMDV 2A StopGo reporter, luciferase signal; human cells with a luciferase reporter of 2A StopGo recoding; control for the full effect not named in the record; Potency, µM (titrated, usually from 57.9 µM), inactives show at the top dose signal change, negative = less light; 1.2% of 410,000 active; AID 1159524; active = well fitted falling curve with a large enough effect; inconclusive = small, poorly fitted or top-dose-only effect; inactive = no such curve, though single readings can be large or run the other way; tested in HEK293T cells; also: % is scaled to controls: 0 for no effect and ±100 for the full control effect; nearly all actives have a fitted effect of over 45% in size; luciferase light after 4 h
# LASV entry inh: blocks Lassa virus binding to or entry into cells. Lassa virus pseudotype entry inhibition, cell reporter; control for the full effect not named in the record. Potency, µM (doses to about 37.9 µM), for the others: at the top dose activity change, negative = inhibition, hits mostly inhibitors. 1.2% of 300,000 active; active means well fitted inhibition curve with a large enough effect; inconclusive means small, poorly fitted or top-dose-only effect, or effect the other way; inactive means flat fitted curve, though single readings scatter; tested in HEK293 cells; also: % is scaled to controls: 0 for no effect and ±100 for the full control effect; nearly all actives have a fitted effect of over 50% in size; luciferase read-out
# Cruzain noTriton: blocks cruzain activity in detergent-free assay; 2.3% of 200,000 active; AID 1476; Potency, µM, for inactives: max response, negative = inhibition, actives largely listed as inhibitors; purified cruzain, Z-FR-AMC fluorescence, no detergent; P25779;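 also: plate controls were enzyme without inhibitor for no effect and buffer without enzyme for full effect; nearly all actives have a fitted effect of over 40% in size; top concentration of the series not given in the record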
# Target sequence (P25779 123-467 limits assumed): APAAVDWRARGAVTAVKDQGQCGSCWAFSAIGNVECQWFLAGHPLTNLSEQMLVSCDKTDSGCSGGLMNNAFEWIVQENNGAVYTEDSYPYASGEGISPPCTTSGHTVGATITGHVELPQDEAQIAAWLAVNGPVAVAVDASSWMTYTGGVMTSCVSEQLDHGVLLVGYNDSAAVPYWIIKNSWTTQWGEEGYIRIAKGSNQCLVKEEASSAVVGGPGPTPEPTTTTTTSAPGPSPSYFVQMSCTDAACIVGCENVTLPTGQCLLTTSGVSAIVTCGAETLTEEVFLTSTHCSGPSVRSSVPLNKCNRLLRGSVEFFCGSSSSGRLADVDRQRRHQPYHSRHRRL
#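 Detergent-free condition (0.00005% Triton X-100) in acetate buffer pH 5.5 with DTT. 1.5 nM enzyme and compound were pre-mixed 15 min, then 2 uM Z-FR-AMC substrate added; reaction progress from fluorescence change between first and third reads (60 s).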
# NS1 inh: influenza NS1 inhibition. S. cerevisiae slowed by influenza A NS1, growth recovery by OD600. Potency, µM (series often up to 46.1 µM), for the others: at the highest dose activity, positive = more growth. 0.4% of 270,000 active. AID 2326; active means well fitted rising curve with a large enough effect; inconclusive means small, poorly fitted or top-dose-only effect; inactive means no such curve, though single readings can be large or run the other way; also: nearly all actives have a fitted effect of over 50% in size
#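 A cell-based growth assay was used: compounds that relieve NS1-induced slow growth of budding yeast raise OD600. Assay medium was yeast nitrogen base with ammonium sulphate and -URA supplement, pH 6.0, with 2% galactose.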
# Cruzain Triton: inhibitors of Trypanosoma cruzi cruzain with detergent | P25779 | purified cruzain, Z-FR-AMC fluorescence, 0.01% Triton | Potency, µM, for inactives: max response, negative = inhibition, most hits filed as inhibitors | 0.43% of 200,000 active;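 also: plate controls were neutral wells for no effect and buffer without enzyme for full effect; nearly all actives have a fitted effect of over 40% in size; top concentration of the series not given in the record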
#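 Enzyme 1.5 nM, Z-FR-AMC 2 uM, NaOAc 100 mM pH 5.5, DTT 5 mM, Triton X-100 0.01%; 15 min RT compound preincubation; kinetic ex360/em450, 60 s delta.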
# Marburg entry inh: inhibitors of Marburg virus binding or cell entry. Marburg virus pseudotyped entry inhibition, cell reporter; control for the full effect not named in the record; about a third of the inactives were read at about 46 µM. Potency, µM (titrated, usually from 37.8 µM), for the others: at the highest dose activity change, negative = inhibition, most hits filed as inhibitors. 1.8% of 300,000 active; active = well fitted inhibition curve with a large enough effect; inconclusive = small, poorly fitted or top-dose-only effect, or effect the other way; inactive = flat fitted curve, though single readings scatter; tested in HEK293 cells; about a fifth of its hits are not listed in these tables; also: % is scaled to controls: 0 for no effect and ±100 for the full control effect; luciferase read-out
# SARS PLP yeast: inhibitors of SARS-CoV papain-like protease in yeast; 0.19% of 330,000 active; S. cerevisiae expressing SARS-CoV PLpro, growth rescue; control for the full effect not named in the record; Potency, µM (highest dose often 32.9 µM), for inactives: at the highest dose activity, positive = growth rescue; AID 485353; active means well fitted rising curve with a large enough effect; inconclusive means small, poorly fitted or top-dose-only effect; inactive means no such curve, though single readings can be large or run the other way; also: 0% is about no effect; nearly all actives have a fitted effect of over 55% in size; growth read by luminescence after 48 h
# Active calls of the source: *; ? = inconclusive; . = not tested or not shown; & = joins results of further samples; [ ] = dose if it differs, or a comment. Unless noted, calls follow the shape of the dose curve; as a rule, active = well fitted curve in the direction sought with a large enough effect; inconclusive = small, poorly fitted or top-dose-only effect, or another doubt; inactive = no such curve, though single readings can be large; an effect the other way counts as inactive or inconclusive. Potency is read from the fitted curve at half-maximal effect.
SMILES,RE007 growth inh,2A StopGo,LASV entry inh,Cruzain noTriton,NS1 inh,Cruzain Triton,Marburg entry inh,SARS PLP yeast
COc1ccc(C(c2nnnn2Cc2cccs2)N2CCN(c3ccccc3F)CC2)cc1 (stereo not given),11%,2%,?,-11%,-4%,-0.9%,?,-1%
Cc1nc2c(C(=O)NCc3ccccc3Cl)c[nH]n2c(=O)c1Cl,11%,.,3%,?,8%,-21%,14%,-1%
CC(C)N(C)Cc1nnnn1CC(=O)NCc1cc(F)cc(C(F)(F)F)c1,-8%,-12%,.,.,-7%,.,.,-3%
Nc1cccc(S(=O)(=O)c2ccc(N)c(N)c2)c1,18%,7%,-6%,.,.,.,-22%[46.1 µM],-3%
O=C(CNC(=O)c1ccccc1F)OC1CCOC1=O (stereo not given),1%,-2%,-1%,.,.,.,.,-5%
Cc1ccc2occ(CN3CCN(Cc4ccccc4)CC3)c(=O)c2c1,.,.,.,-3%,1%,5.9%,3%,-1%
CN(C)CCCNC(=O)c1ccc(Oc2ccccc2)cc1,10%,-23%,17%[46.1 µM],.,.,.,-8%[46.1 µM],-3%
CC1=C(C#N)C(NC(=O)c2ccc(Cl)cc2)(C(F)(F)F)C(=O)N1 (stereo not given),49%,-24%,16%,3%,11%,-2.2%,-2%,7%
COc1ccccc1NC(=S)N(Cc1ccc(C(=O)O)cc1)Cc1ccc(OC)c(OC)c1,0%,-9%,20%,.,.,.,-4%,2%
O=S(=O)(c1ccccc1)n1nc(-c2ccc(Cl)cc2)nc1NCc1ccc(F)cc1,.,-5%,-11%[46.1 µM],-19%,.,-2.0%,1%[46.1 µM],.
O=C(COc1ccc(-c2ccccc2)cc1)NNC(=O)NC1CCCCC1,1%,6%,-18%,.,.,.,-19%[46.1 µM],0%
CCOC(=O)/C(C)=N/NC(=O)c1ccc([N+](=O)[O-])cc1,-20%,-8%,3%,.,.,.,?,0%
COc1cccc(OC)c1C(=O)Nc1ccc2c(c1)n(C)c(=O)n2C,3%,8%,.,.,5%,.,.,?
Cc1noc2ncnc(N3CCN(c4ccccc4F)CC3)c12,.,?,-21%[46.1 µM],3%,.,-2.2%,.,.
Cc1ccc(OCCCSc2ncccn2)cc1C,-16%,61%[activator],22%,2%,-15%,-4.7%,?,30%
COc1cccc(CN2CC(C(=O)NCc3ncc(C)[nH]3)CCC2=O)c1 (stereo not given),-5%,-8%,-3%,.,13%,.,4%,21%
O=C(CN1CCN(c2ccc(F)cc2)CC1)Nc1cccnc1Cl,2%,-23%,-3%,.,-3%,.,1%,0%
CCOc1ccc(C(=O)OCC(=O)NCCCc2ccccc2)cc1,-10%,-11%,.,.,-13%,.,.,2%
CCOc1ccc(N2C(=O)CSC2=NC#N)cc1,-11%,-23%,-9%,.,.,.,-22%,-2%
Cc1ccc(-n2ncc(-c3nnc(SCC(=O)NC4CCCC4)o3)c2N)cc1C,-22%,-28%,?,4%,-6%,1.3%,?,0%
COc1ccccc1N1CCN(C(=O)CCCNC(=O)Cn2cnc3sc(C)c(C)c3c2=O)CC1,5%,0%,0%,.,-18%,.,-18%[46.1 µM],-2%
O=C(CCN1CCN(CC(=O)Nc2ccccc2F)CC1)Nc1ccccc1F,-9%,-25%,3%,4%,0%,2.1%,-2%,-14%
Cc1cc(C(=O)COC(=O)c2cnccn2)c(C)n1-c1ccc(Br)cc1,-7%,-7%,1%[46.1 µM],.,.,.,6%[46.1 µM],-10%
Cc1nn(CC(=O)NCc2ccccn2)c(C)c1[N+](=O)[O-],7%,-5%,18%,.,2%,.,5%[46.1 µM],-1%
CC(C)[C@H](NC(=O)[C@@H]1CSC2c3ccccc3C(=O)N21)C(=O)NCc1ccncc1 (stereo not given in full),-11%,22%,19%[46.1 µM],.,2%,.,0%[46.1 µM],-2%
SMILES,RE007 growth inh,2A StopGo,LASV entry inh,Cruzain noTriton,NS1 inh,Cruzain Triton,Marburg entry inh,SARS PLP yeast
CCOc1ccc(NC2=C(Cl)C(=O)N(C3CCCCC3)C2=O)cc1,-7%,-1%,3%,6%,-8%,-6.7%,?,-7%
O=C(C1CCCN(S(=O)(=O)c2ccc(Br)cc2)C1)N1CCN(Cc2ccccc2)CC1 (stereo not given),8%,-15%,?,.,-17%,.,?,2%
Cc1cc(OC2CCCCC2)nc(-c2ccccc2O)n1,-13%,-9%,?,-16%,-6%,-3.4%,6%,-26%
CC1CCc2nc3ccccc3c(C(=O)OCC(=O)N3CCc4ccccc43)c2C1 (stereo not given),5%,-17%,?,?,29%,-4.7%,?,1%
COc1c(Cl)cc(C(=O)Nc2ccc(Cl)cn2)cc1Cl,-21%,-5%,-18%,-8%,0%,-3.8%,2%[46.1 µM],3%
Cc1c(C(=O)Oc2ccc(Cl)cc2)n(C)oc1=O,-19%,-20%,-4%[46.1 µM],.,3%,.,13%[46.1 µM],0%
CCOc1ccc(CCNC(=O)c2ccc(-c3nc(COc4ccc(C)cc4)c(C)o3)cc2)cc1,.,-16%,.,-1%,.,0.8%,-1%[46.1 µM],.
COc1ccccc1-n1ccnc(SCC(=O)NC2CCCCC2)c1=O,-7%,-5%,7%,.,.,.,-27%[46.1 µM],-3%
O=C(CNc1cccc(S(=O)(=O)N2CCCCC2)c1)Nc1cccc(F)c1,5%,0%,-34%[46.1 µM],.,.,.,-29%,2%
CCCOc1ccc(Cc2c(Cl)nc(SC)nc2OC)cc1,8%,-3%,12%,-4%,-6%,-3.6%,-4%[46.1 µM],-15%
CC/C(=N\NC(=O)c1c[nH]c2ccccc12)c1cccs1,6%,21%,?,7%,?,-2.8%,?,2%
CCn1c(Cc2ccccc2)nnc1SCC(=O)Nc1nccs1,0%,23%,11%,0%,-8%,5.2%,10%,6%
COC(=O)/C(=N/Nc1ccccc1C)Sc1nnc(C(O)c2ccccc2)n1-c1ccccc1 (stereo not given),-9%,18%,9%,1%,12%,-16%,19%[46.1 µM],-26%
O=C(Nc1cccnc1Cl)c1cc(-c2ccc(Cl)cc2)on1,14%,7%&14%,4%&4%[46.1 µM],-7%,-2%,-2.7%,4%&2%[46.1 µM],18%
Fc1ccc(NC(=S)N2CCSC2c2cccs2)cc1 (stereo not given),-7%,50%[activator],1%,.,.,.,-12%,-3%
CN(C)c1cccc(NC(=O)Cc2ccc(F)cc2)c1,-1%,30%[activator],0%,-15%,-12%,1.5%,24%,-3%
Nc1nc2c(c3c1c(=O)oc1ccccc13)CCCCC2,-3%,-19%,16%,-5%,-5%,-1.3%,9%,-13%
COC(=O)c1cn(-c2ccccc2)c(C)c1C(=O)OC,-15%,-7%,0%,-3%,-5%,-1.2%,-2%,12%
N#CCCN(/N=C/c1cccnc1)C1=NS(=O)(=O)c2ccccc21,-10%,-13%,22%[46.1 µM],.,?,.,12%[46.1 µM],-3%
CCC(CC)C(=O)NCc1ccc2c(c1)cc(C)n2C,-3%,-17%,4%,-5%,?,5.3%,8%,1%
CC(C)N(CC(N)=O)C(=O)Cc1coc2cc3c(cc12)CCC3,-6%,-22%,12%,12%,0%,-1.9%,26%,10%
O=C(Nc1ccccc1N1CCCCC1)c1ccc(Cl)cc1,-10%,-4%,6%,.,-10%,.,-18%,-7%
Clc1cccc(N2CCNCC2)c1,-11%[18.4 µM],-10%&-13%,.,2%&-5%,11%,-4.1%&-1.6%,?,-2%
Cc1cccc(C(=O)NC2CCN(CC(=O)NCc3cccs3)CC2)c1,-11%,-1%,16%,.,6%,.,-6%[46.1 µM],-1%
O=C(NC1CCSc2ccccc21)c1cccc(OC(F)F)c1 (stereo not given),10%,22%,3%,.,-22%,.,-1%,-32%
SMILES,RE007 growth inh,2A StopGo,LASV entry inh,Cruzain noTriton,NS1 inh,Cruzain Triton,Marburg entry inh,SARS PLP yeast
NC(=O)N/N=C/c1ccc(-c2ccc([N+](=O)[O-])cc2)o1,-6%,38%[activator],.,.,3%,.,0%,-3%
CCOC(=O)c1cc(S(=O)(=O)N2CCN(c3ccc(C(C)=O)cc3)CC2)[nH]n1,.,-3%,11%[46.1 µM],-5%,.,0.2%,.,.
O=C(O)c1ccc(Oc2cc(Oc3ccc(C(=O)O)cc3)cc([N+](=O)[O-])c2)cc1,-28%,1%,5%[46.1 µM],.,17%,.,7%[46.1 µM],7%
O=C(c1cc(-c2cccs2)on1)N1CCN(c2ccccc2)CC1,-8%,-2%,.,-8%,-69%,-5.4%,-1%,-2%
Cc1cc(C(=O)Nc2sc3c(c2C#N)CCC(C(C)(C)C)C3)no1 (stereo not given),4%,0%,-18%,4%,-32%,1.4%,?,4%
CCCN(C(=O)Cc1nc(-c2ccc(OC)cc2)no1)c1ccccc1C,.,-19%,-7%[46.1 µM],0%,.,-5.0%,.,.
CCOC(=O)c1c(C)oc2cc(Cl)c(O)c(CN(C)C)c12,?,34%[activator],13%,.,-3%,.,-10%[46.1 µM],1%
CC(C)c1ccccc1NC(=S)NC1CCCCC1,25%,6%,12%,.,-56%,.,-2%[46.1 µM],-2%
CCCc1nn2c(=O)cc(COC(=O)c3cccc(NC(=O)c4cccs4)c3)nc2s1,.,12%,10%[46.1 µM],-4%,.,-1.7%,.,.
COc1ccc(CC(=O)NC(C)c2nnc(SCC(=O)Nc3cc(C)ccc3OC)n2C)cc1 (stereo not given),-11%,10%,0%,.,-12%,.,-3%[46.1 µM],0%

# One compound at a time (already shown).
# `O=C(NC1CCSc2ccccc21)c1cccc(OC(F)F)c1` (stereo not given) across the screens: RE007 growth inh = 10%; 2A StopGo = 22%; LASV entry inh = 3%; Cruzain noTriton = .; NS1 inh = -22%; Cruzain Triton = .; Marburg entry inh = -1%; SARS PLP yeast = -32%
# `CC1CCc2nc3ccccc3c(C(=O)OCC(=O)N3CCc4ccccc43)c2C1` (stereo not given) across the screens: RE007 growth inh = 5%; 2A StopGo = -17%; LASV entry inh = ?; Cruzain noTriton = ?; NS1 inh = 29%; Cruzain Triton = -4.7%; Marburg entry inh = ?; SARS PLP yeast = 1%
